High-throughput results (PubChem BioAssay)
CSC inhib – cancer stem cell viability inhibitors, primary screen, luminescence. inhibition, % at 7.5 µM. 300,000 compounds, 1.1% hits. cancer stem cell-like cells viability;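 active = mean at 75% or more and at least half the replicates too; inconclusive = mean and replicates disagree; tested in HMLE shEcad cells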;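 note: 0% = median of negative and 100% = median of positive control wells; the first replicate is given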
MT1-MMP act inh – blockers of MT1-MMP proenzyme processing, primary screen, HT1080 RFP-PRO-GFP cells, GFP/RFP fluorescence; GFP/RFP ratio change, % at 20 µM; 360,000 compounds, 0.061% hits; GFP/RFP ratio fluorescence, overnight; percent of plate control window, DMSO zero;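 active = GFP/RFP ratio change of at least 30% with cell ATP level not reduced by more than half and red fluorescence within 50% of control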; note: strong numbers were not always called active
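Test system: HT1080 cells expressing an RFP-PRO-GFP fluorescent reporter construct / Compound dosing: single-point 20 µM compound, 1% DMSO / Schedule: cells overnight before dosing, compound overnight, 37 °C, 5% CO2 / Evaluation: GFP/RFP fluorescence ratio / Control set: DMSO and RFP-L50D-GFP cell wells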
PABP polyA inh – PABP poly(A) RNA binding inhibitors, primary screen, biochemical, fluorescence polarization, uHTS; Polyadenylate-binding protein 1 (Homo sapiens), P11940; inhibition, % at 35 µM; 290,000 compounds, 1% hits; AID 2014, 2009;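 active = 50% or more with normal probe brightness, or confirmed in later tests; inconclusive = above 50% with abnormal brightness, or retests that disagree; inactive = below 50% or failed in later tests; about a fifth of its hits are not listed in these tables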;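 note: calls also rest on retests at 20 µM and on dose response follow-up; controls were probe without protein and protein plus probe with vehicle; some compounds called inactive have numbers as strong as hits; many hits fall short of the cut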
Target sequence (P11940 whole entry, looked up): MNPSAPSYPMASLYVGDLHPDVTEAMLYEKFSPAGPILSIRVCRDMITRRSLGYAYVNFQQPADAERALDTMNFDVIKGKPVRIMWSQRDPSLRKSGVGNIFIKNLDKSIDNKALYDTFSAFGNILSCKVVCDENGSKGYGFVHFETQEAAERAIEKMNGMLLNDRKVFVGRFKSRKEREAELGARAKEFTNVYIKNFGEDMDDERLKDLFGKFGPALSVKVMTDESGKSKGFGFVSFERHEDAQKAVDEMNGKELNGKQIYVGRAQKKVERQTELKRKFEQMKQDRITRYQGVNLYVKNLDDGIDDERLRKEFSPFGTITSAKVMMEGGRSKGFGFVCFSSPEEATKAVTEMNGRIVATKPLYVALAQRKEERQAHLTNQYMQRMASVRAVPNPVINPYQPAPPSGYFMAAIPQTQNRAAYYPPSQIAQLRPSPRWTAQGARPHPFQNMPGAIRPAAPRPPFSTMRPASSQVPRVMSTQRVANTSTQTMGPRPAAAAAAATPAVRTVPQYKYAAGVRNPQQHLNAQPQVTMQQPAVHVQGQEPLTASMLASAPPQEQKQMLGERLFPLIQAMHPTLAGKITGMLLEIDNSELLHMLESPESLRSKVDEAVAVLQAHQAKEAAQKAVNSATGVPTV
Rce1 inhib – yeast Rce1p protease inhibitors, primary screen, biochemical, fluorescence, cell-free homogeneous | CAAX prenyl protease 2 (Saccharomyces cerevisiae (strain ATCC 204508 / S288c)), Q03530 | yeast membranes, quenched prenylated peptide cleavage fluorescence | calls only | 290,000 compounds, 0.27% hits | AID 2563, 2010;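 active = fall in fluorescence gain of 50% or more versus controls, with final raw signal at or below 3038400; inconclusive = same 50% fall but final raw signal above 3038400; inactive = fall in fluorescence gain under 50%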;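 note: plate controls were neutral control wells for no effect and wells lacking membranes for full effect; tested at 10 µM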
HIV Env fusion – inhibitors of HIV-1 Env-driven cell-cell fusion, primary screen, HeLa-JRFL effector, CEM21 target cells, luciferase; 360,000 compounds, 1.1% hits; inhibition, % at 12.3 µM;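 active = mean replicate inhibition score of at least 50 and every replicate individually at or above 50; inconclusive = only one of the two criteria met; inactive = mean below 50 and not all replicates reaching 50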;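 note: 0% = plate neutral controls and 100% = maraviroc near 300 nM; one replicate is shown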
eIF4H FP inh – human eIF4H binding inhibitors, primary screen, translation initiation inhibitor project, biochemical, uHTS, fluorescence polarization | Eukaryotic translation initiation factor 4H (Homo sapiens), Q15056 | eIF4H fluorescence polarization binding assay | inhibition, % at 35 µM | 290,000 compounds, 0.94% hits;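 active = 50% or more with normal probe brightness, or confirmed in later tests; inconclusive = above 50% with abnormal brightness, or retests that disagree; inactive = below 50% or failed in later tests; about a fifth of its hits are not listed in these tables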;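 note: calls also rest on retests at 20 µM and on dose response follow-up; 0% = protein and probe with vehicle and 100% = probe without protein; strong numbers were not always called active; many hits fall short of the cut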
UUG fidelity – modulators of yeast start codon fidelity, primary screen, whole organism, S. cerevisiae, single point, plate reader. 350,000 compounds, 0.13% hits. activity score, % at 18.7 µM. AID 602363, 2012. S. cerevisiae UUG-firefly luciferase reporter, luminescence/redox ratio;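 active = replicate mean at a twofold rise or more, about +100% in these data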;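 note: firefly luciferase made from a UUG start codon reports start codon fidelity; reporter light over untreated wells divided by growth signal over untreated wells; some hits fall short of that in this replicate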
MT1-MMP act inh RFP – recorded beside MT1-MMP act inh, whose call it bears; RFP signal change, %; measured here: RFP expression control read;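 0 = vehicle wells; hits needed this value within 50% of zero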
Numbers without * were called inactive; i = inactive; u = inconclusive; x = no result given; & = joins results of further samples; [ ] = remark or other dose. The list is partial; count on the stated rates, not on these rows.

SMILES	CSC inhib	MT1-MMP act inh	MT1-MMP act inh RFP	PABP polyA inh	Rce1 inhib	HIV Env fusion	eIF4H FP inh	UUG fidelity
Cc1ccc(C(=O)N2CCCCCC2)cc1S(=O)(=O)Nc1ccccc1	-10	1	-8	0	i	10	3	-8
O=C(CN1CCC(NC(=O)C2CC2)CC1)Nc1cccc(F)c1	2	-2	4	-3	i	4	4	-11
COc1ccc(C)cc1S(=O)(=O)N(CC(=O)Nc1ccc2c(c1)OCCO2)Cc1ccccc1	-7	-4	-1	-6	i	x	-7	x
Cc1ccc(CO/N=C/C2=C(Cl)c3ccccc3CC2)cc1	-1	-2	-1	14	i	x	4	x
O=C1CCC([N+](=O)[O-])C(C2CC=CCC2)N1 (stereo not given)	-13	4	5	x	i	-6	x	x
O=C(c1cc(F)c(F)cc1Cl)N1CCN(c2ccc([N+](=O)[O-])c3ncccc23)CC1	15	-4	-5	-11	i	25	0	x
O=C(NC12CC3CC(CC(C3)C1)C2)C1=COCCO1	x	1	12	-6	i	x	-4	-18
CCCCOc1ccc(N(CC(=O)NC(C)C)C(=O)CCC(=O)Nc2ccccn2)cc1	-5	0	4	-4	i	-6	-2	x
CC(C)NCC(O)COc1c(F)cc(Br)cc1F (stereo not given)	-12	-1	4	1	i	x	1	-12
Cc1c(Cl)cccc1NC(=O)CNC(=O)c1ccc2c(c1)OCCO2	-4	0	2	x	x	-2	x	-14
c1ccc2c(c1)CC1(CCCCC1)n1nnnc1-2	-2	-2	-1	-3	i	x	-3	-10
COc1ccc(C(=O)CSc2nnc3ccccn23)cc1OC	x	2	4	3	i	-17	1	x
O=C(N/C(=C/c1cccc(Br)c1)C(=O)N1CCOCC1)c1ccco1	x	1	6	x	x	-23	x	-6
CN(C)S(=O)(=O)c1ccc(NC(=O)CCNC(=O)c2ccco2)cc1	4	2	3	-5	i	-10	-13	-14
CN(C)C(CNC(=O)C1CCN(S(=O)(=O)c2cccc(C(F)(F)F)c2)CC1)c1ccccc1 (stereo not given)	14	-2	3	9	i	-7	-2	-24
Cc1cccc(Cn2nc(C(C)(C)C)cc2C(=O)N2CCOCC2)c1	-6	0	-6	-7	i	-6	4	-6
O=c1[nH]cc(Cc2ccccc2)c(=O)[nH]1	x	1	4	x	x	13	x	-14
Cc1cc(Cl)c(S(=O)(=O)Nc2ccc(Cl)cn2)cc1OCC(N)=O	1	4	5	13	i	x	-4	8
COc1ccc(OCCN2CCN(C(=O)c3ccc(OC)cc3)CC2)cc1	30	-1	-24	1	i	3	-4	-16
Cc1nc(C)c(C(=O)NCCC(c2ccccc2)c2ccccc2)o1	9	-7	-23	4	i	19	5	x
Cn1cc(S(=O)(=O)Nc2ccc(F)cc2F)c(=O)n(C)c1=O	-10	2	2	2	i	-5	-2	-8
CCOC(=O)N1CCC(NC(=O)c2cc(C)c3c(C)nn(-c4ccccc4)c3n2)CC1	14	-1	-2	16	i	-87	2	-16
COc1ccccc1-c1c(C(F)(F)F)oc2c(CN(C)C)c(O)ccc2c1=O	0	3	2	0	i	2	11	-13
CCN(CC)C(=O)[C@H]1CC(CC(=O)NCCCN(C)C)C(=O)N2CCc3c([nH]c4ccc(OC)cc34)[C@]12C (stereo not given in full)	x	0	8	x	x	-9	x	-2
CCC1Sc2ccc(S(=O)(=O)N3CCN(c4ccccc4)CC3)cc2NC1=O (stereo not given)	-8	3	-6	5	i	4	4	-11
Next compounds follow:
SMILES	CSC inhib	MT1-MMP act inh	MT1-MMP act inh RFP	PABP polyA inh	Rce1 inhib	HIV Env fusion	eIF4H FP inh	UUG fidelity
COC(=O)C1=C(c2ccc(OC)cc2)OC(=O)C1(C)C	-1	-7	-1	6	i	4	2	42
CCc1nc2ccc(C(=O)Nc3cccc(OCC(=O)N(C)C)c3)cn2c1N(C=O)Cc1ccc(OC)cc1	x	0	2	x	x	-56	x	-9
Cc1ccc(S(=O)(=O)N2CCN(C(=O)CC(C)(C)C)CC2)cc1	-8	2	2	-8	i	-8	-6	5
O=C(Cc1ccc(Cl)cc1)NCC(=O)N1CCN(Cc2ccccc2)CC1	-9	-3	-2	0	i	2	-6	-16
O=C(NN=C1CCCCC1)c1cc(-c2ccccc2)n[nH]1	-17	1	4	-8	i	-18	-7	-6
CCc1nnc(NC(=O)CCC(=O)N2CCN(c3ccccn3)CC2)s1	-11	-5	-2	-4	i	-41	-9	-16
CCOC(=O)c1c(NS(=O)(=O)c2cccc(OC)c2)sc2c1CCC2	22	3	2	44	i	-30	26	x
O=C(COC(=O)CNC(=O)c1cccs1)Nc1ccccc1C(F)(F)F	-2	0	2	-6	i	3	-5	-13
Cn1c(CCC(=O)Nc2ccc(N3CCOCC3)cc2)nc(=O)c2ccccc21	-7	-4	-1	0	i	-75	-6	-3
COc1cc(NC2c3ccccc3C(=O)N2c2ccc(C)cn2)cc(OC)c1OC (stereo not given)	-5	-2	3	16	i	-169	2	-25
C[C@H]1COC(=O)[C@H](Cc2ccc(F)cc2)C/C=C\C[C@@H](CC(=O)NCCO)C(=O)N1	-4	0	4	x	x	12	x	-16
O=C(C1=C(O)C(=O)N(CCN2CCOCC2)C1c1cccc(Br)c1)c1cc2ccccc2o1 (stereo not given)	-8	-5	9	4	i	-7	6	-21
CCOc1ccc2cc(/C=C/C(=O)c3ccco3)c(Cl)nc2c1	14	-74	-28	u	i	-49	u	5
O=C(COc1ccc2ccccc2c1)NC1CC1	-3	-3	3	-13	i	-110	-2	-11
CCOc1ccc(S(=O)(=O)N2CCN(Cc3ccccc3)CC2)c2cccnc12	5	0	-3	-7	i	x	0	-9
Cc1cc(C)n(CC2CC(=O)N(c3ccc(F)c(Cl)c3)C2=O)n1 (stereo not given)	x	0	8	1	x	-16	4	-12
CNCc1sccc1C	-13	-5	0	9	i	6	-11	x
CCOC(=O)N1CCN(CC(=O)N2c3ccccc3CCc3ccccc32)CC1	-4	-2	1	-9	i	0	1	x
COc1ccc(C(=O)CCN2CCCCCC2)cc1	12	10	1	-3	i	x	-2	-9
Cc1ccc(NC(=O)CCNS(=O)(=O)c2cccs2)cc1F	8	2	3	-2	i	-13	-3	-8
COc1ccc(C(=O)N/N=C\c2ccoc2)cc1	-9	2	5	4	i	-6	17	-15
CN1CCc2c(sc3nc(NCCO)n(-c4cccc(Cl)c4)c(=O)c23)C1	-11	-6	2	10	i	12	-11	17
C[C@@H]1CN([C@H](C)CO)C(=O)c2cc(NC(=O)C3CCCCC3)ccc2O[C@@H]1CN(C)Cc1ccc(C(F)(F)F)cc1	-3	-1	-4	x	x	23[16.7 µM]	x	17&10
Cc1cccc(C)c1Nc1nnc(SCC(=O)Nc2ncc(C(F)(F)F)cc2Cl)s1	-8	-3	2	-1	i	5	12	-9
CCCSc1nc(C)cc(C)c1C(N)=O	-2	-5	-6	-5	i	-36	11	-20

Structures above that contain a nitro group on carbon (two):
SMILES	CSC inhib	MT1-MMP act inh	MT1-MMP act inh RFP	PABP polyA inh	Rce1 inhib	HIV Env fusion	eIF4H FP inh	UUG fidelity
O=C1CCC([N+](=O)[O-])C(C2CC=CCC2)N1 (stereo not given)	-13	4	5	x	i	-6	x	x
O=C(c1cc(F)c(F)cc1Cl)N1CCN(c2ccc([N+](=O)[O-])c3ncccc23)CC1	15	-4	-5	-11	i	25	0	x

Other compounds
SMILES	CSC inhib	MT1-MMP act inh	MT1-MMP act inh RFP	PABP polyA inh	Rce1 inhib	HIV Env fusion	eIF4H FP inh	UUG fidelity
COc1ccc(CC(=O)Nc2cc(C)on2)cc1	-20	3	-5	-18	i	7	-9	-19
CC(=O)N=C1SC2CS(=O)(=O)CC2N1c1ccc(-c2nc3ccc(C)cc3s2)cc1 (stereo not given)	-1	x	x	14	i	x	4	x
CC(C)CC(NC(=O)C(NC(=O)OC(C)(C)C)C(C)C)C(N)=O (stereo not given)	-4	1	1	-8	i	-19	-1	x
Cn1ccc(=NC=C(C#N)C#N)c2ccccc21	6	-12	0	9	i	-7	-7	x
O=C(CCNC(=O)c1ccc([N+](=O)[O-])cc1)Nc1ccc(F)cc1	10	0	-1	14	i	-25	6	-19
N#Cc1cc(-c2ccccc2)oc1NC(=O)c1ccco1	9	1	-3	2	i	-46	-12	-12
CCCn1nnc(NC(=S)NC(=O)c2cccs2)n1	-13	3	3	-5	i	-24	-10	-39
Cc1ccc(NC(=O)Cn2c(=O)cnc3ccccc32)cc1S(=O)(=O)N1CCCCC1	x	-9	-14	x	x	8	x	9
CCCCCCCCCCCC(=O)NC1CCS(=O)(=O)C1 (stereo not given)	-5	4	1	11	i	9	-16	x
O=C(CCN1C(=O)C2C3C=CC(C3)C2C1=O)Nc1ccc2c(c1)OCO2 (stereo not given)	0	-2	0	2	i	x	1	-6
Cc1c(N(C)C(=O)c2ccc3c(c2)OCO3)c(=O)n(-c2ccccc2)n1C	-2	-1	0	1	i	-26	1	-17
O=C(Nc1ccc(OCc2ccccc2)cc1)c1cccc([N+](=O)[O-])c1	30	9	5	-10	i	-12	-6	-3
Nc1cccc(-c2cn3cccnc3n2)c1	-12	0	-1	47	i	15	-3	-7
O=S(=O)(Nc1c(O)ccc2ccccc12)c1ccccc1	7	3	5	x	i	-6	x	-11
COc1ccc2oc(C)c(C(=O)c3ccc([N+](=O)[O-])cc3)c2c1	-4	-3	-6	-3	i	x	-4	x
O=c1cc(-c2cccc(F)c2)[nH]c2ccccc12	47	20	2	15	i	-140	5	-9
CCCOc1ccc(-c2nnn(CC(=O)c3c[nH]c4ccccc34)n2)cc1	18	x	x	19	i	x	14	-13
Cc1cc(C)nc(/N=C(/NC(=O)Nc2ccc(Cl)c(Cl)c2)Nc2ccccc2)n1	-13	x	x	4	i	x	3	x
CCn1cnc2sc(C(=O)N(Cc3ccc(N(C)C)cc3)Cc3ccco3)c(C)c2c1=O	-26	2	0	6	i	x	-1	x
O=C(CC1C[C@H](C(=O)N2CCCCC2)[C@@]2(CCc3ccccc3)c3[nH]c4ccccc4c3CCN2C1=O)NCc1cccc(C(F)(F)F)c1 (stereo not given in full)	x	-35	-34	x	x	-84	x	-20
Cn1c(=O)c2c(-c3ccccc3)n(-c3ccccc3O)cc2n(C)c1=O	-13	-2	5	-2	i	x	-6	-26
O=C(c1ccco1)N1CCN(C(c2ccccc2Cl)c2nnnn2Cc2ccco2)CC1 (stereo not given)	x	-9	-2	12	x	x	2	6
O=C(CN1CCOCC1)Nc1ccc2c(c1)OC(F)(F)O2	-11	2	3	42	x	-4	-2	-19
CC(=O)N1CCC2(CC1)CC(=O)c1cc(OCC(=O)NCc3ccc(C)cc3)ccc1O2	38	-3	-2	-9	i	-41	4	-3
COc1ccc(C(C)=O)cc1COC(=O)C(CO)NS(=O)(=O)c1ccc(Br)cc1 (stereo not given)	-14	-1	-1	2	i	-13	-9	x
CC1CCCC(C)N1C(=O)COC(=O)CCC(=O)c1ccc(F)cc1 (stereo not given)	-13	-2	2	x	x	x	x	-14
Cc1cc(NCCN2CCCCC2)n2c(nc3ccccc32)c1C#N	x	x	x	11	i	x	16	x
COc1ccc(C2C(C#N)=C(N)N(c3cccnc3)C3=C2C(=O)CC(C)(C)C3)cc1OC (stereo not given)	-8	0	-3	3	i	x	6	-5
Cn1cc(S(=O)(=O)Nc2ccc3c(c2)OCCO3)cn1	-19	-3	2	30	i	-3	7	x
